# Compound activity from PubChem BioAssay.
# Ecoli rRNA inh: inhibitors of bacterial rRNA selective over humanized ribosomes; E. coli WT GFP vs humanized-ribosome RFP mutants, fluorescence, 24 h; stronger effect = lower value; DMSO median 0, no signal -100; GFP signal change (wild-type ribosome), % (no concentration beside the values); 350,000 compounds, 1.6% hits;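 active means significant combined selectivity score with lowered wild-type GFP, culture density cut under 30%, mutant RFP and density less affected; inactive means any of these conditions unmet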; further: one replicate is shown; some compounds called inactive have numbers as strong as hits
# MLL AF4-AF9 inh: blocks AF4 peptide binding to human AF9. AlphaScreen, biotin-AF4 peptide binding to FLAG-AF9. P42568. inhibition, % at 10 µM. 350,000 compounds, 0.47% hits;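 active means every replicate reaching a set inhibition limit, whatever the replicate mean, cut at about 25% in these data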;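 further: 0% = plate neutral control median and 100% = total signal loss; the record names both 10 and 1 µM as test concentration; the first replicate is given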
# Target sequence (P42568 whole entry, looked up): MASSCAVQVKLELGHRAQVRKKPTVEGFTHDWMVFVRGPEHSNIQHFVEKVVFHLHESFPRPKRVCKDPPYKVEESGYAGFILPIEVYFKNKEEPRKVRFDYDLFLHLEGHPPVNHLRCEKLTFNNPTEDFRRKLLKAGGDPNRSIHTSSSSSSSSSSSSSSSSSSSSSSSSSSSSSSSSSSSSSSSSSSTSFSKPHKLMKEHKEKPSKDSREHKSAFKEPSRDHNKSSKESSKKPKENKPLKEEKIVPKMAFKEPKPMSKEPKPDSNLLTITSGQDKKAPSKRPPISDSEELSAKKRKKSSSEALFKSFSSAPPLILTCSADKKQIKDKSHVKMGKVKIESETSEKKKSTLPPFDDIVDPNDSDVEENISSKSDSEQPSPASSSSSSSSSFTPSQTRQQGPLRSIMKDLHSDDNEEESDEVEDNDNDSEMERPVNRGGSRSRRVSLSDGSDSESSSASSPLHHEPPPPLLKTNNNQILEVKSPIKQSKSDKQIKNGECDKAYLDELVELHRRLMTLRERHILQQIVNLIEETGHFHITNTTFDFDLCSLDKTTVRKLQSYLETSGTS
# FGF22 binding: FGF22 (human) thermal shift binding | recombinant FGF22 thermal shift, SYPRO orange fluorescence; percent of sucrose octasulfate shift, DMSO zero | calls only at 9.99 µM | 340,000 compounds, 1.5% hits | AID 651658;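 active means melting point raised past a set limit in the mean and every replicate; three in four hits are not shown here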
# Target sequence (Q9HCT0 whole entry, looked up): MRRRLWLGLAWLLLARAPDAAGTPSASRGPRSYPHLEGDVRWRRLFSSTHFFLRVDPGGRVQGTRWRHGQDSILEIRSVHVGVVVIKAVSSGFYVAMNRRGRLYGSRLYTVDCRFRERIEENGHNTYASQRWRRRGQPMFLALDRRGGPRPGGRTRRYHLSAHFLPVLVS
# Ecoli rRNA inh OD600: second read-out of Ecoli rRNA inh, no call of its own (marks repeat the call); OD600 change, %; measured here: OD600 growth;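 optical density of the mix in the first replicate; 0 = DMSO median and -100 = no signal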
# Ecoli rRNA inh RFP: second read-out of Ecoli rRNA inh, no call of its own (marks repeat the call); RFP signal change, %; measured here: RFP humanized mutant strains;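 first replicate; 0 = DMSO median and -100 = no signal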
# * marks the source's active call; other numbers are inactive results; i = inactive; + = active, no number; & = joins results of further samples.
Ecoli rRNA inh	Ecoli rRNA inh OD600	Compound	Ecoli rRNA inh RFP	MLL AF4-AF9 inh	FGF22 binding
-1	-7	C[C@@H]1CCCCO[C@H](CN(C)Cc2ccc3c(c2)OCO3)[C@H](C)CN([C@H](C)CO)C(=O)c2cc(NC(=O)C3CCCCC3)ccc2O1	1.0	6.8	i
6	-17	O=C1CCCCC(=O)[C@H](OC(=O)c2ccccc2)C[C@H](c2ccccc2)O1	-3.4	-0.2	i
-1	-1	COc1ccc(CN(C)C[C@@H]2OCCCC[C@@H](C)Oc3ccc(NC(=O)Nc4ccc5c(c4)OCO5)cc3C(=O)N([C@H](C)CO)C[C@@H]2C)cc1	3.5	-2.0	i
1	-8	CCCCC(=O)N(C)c1c(CC)nc2c(OCCOc3ccccc3)cccn12	2.3	1.0	i
-8	-17	C[C@@H]1CN([C@@H](C)CO)C(=O)Cc2cc(N(C)C)ccc2O[C@H]1CN(C)S(=O)(=O)c1ccc(Cl)cc1	3.7	19	i
-4	-11	C[C@@H]1CN([C@@H](C)CO)C(=O)c2cccc(NC(=O)C3CCCCC3)c2O[C@@H]1CN(C)Cc1ccc(C(F)(F)F)cc1	3.0	5.2	i
-3	-4	CN(C)C(=O)c1ccc(-c2ccc3c(c2)[C@@H]2[C@@H](CCN2C(=O)C2CCC2)[C@H](CO)N3C)cc1	2.4	-1.0	i
-8	-9	CCC(=O)Nc1ccc2c(c1)OC[C@@H](C)N(Cc1cccc(F)c1)C[C@@H](C)[C@H](OC)CN(C)C2=O	2.2	1.5	i
2	8	C[C@@H]1CCCCO[C@@H](CN(C)Cc2ccc3c(c2)OCO3)[C@@H](C)CN([C@H](C)CO)C(=O)c2cc(NC(=O)Nc3ccc(C(F)(F)F)cc3)ccc2O1	-2.7	1.8	i
3	-4	O=C(C[C@@H]1CC[C@H](NC(=O)NC2CCCC2)[C@@H](CO)O1)NCc1ccc(F)cc1	1.6	-1.4	i
0	12	C[C@H]1CN([C@@H](C)CO)C(=O)c2cc(C3=CCCC3)cnc2O[C@H]1CN(C)C(=O)c1ccccn1	-3.6	-9.2	i
1	3	CCC1=NN(C(=O)c2ccccc2[N+](=O)[O-])C(O)(c2ccccc2)C1 (stereo not given)	0.3	-2.6	i
8	7	COc1ccc(S(=O)(=O)N2CCOCC2)cc1NC(=O)C1CCCN1C(=O)c1cccs1 (stereo not given)	2.8	2.8	i
-38	-67	N#C[C@H]1[C@H](c2ccc(-c3cccc(F)c3)cc2)[C@@H](CO)N1C(=O)NC1CCCC1	-5.7	-0.7	i
12	7	Cc1cccc(CCNC(=O)C2CC(O)CN2C(=O)Nc2ccccc2)c1 (stereo not given)	6.8	0.7	i
1	-9	CCCC#Cc1cnc2c(c1)C(=O)N([C@@H](C)CO)C[C@@H](C)[C@H](CN(C)C(=O)Nc1cccc(F)c1)O2	0.6	-0.6	i
2	-2	C[C@H](O)C#Cc1cnc2c(c1)C(=O)N([C@@H](C)CO)C[C@H](C)[C@H](CN(C)C(=O)Cc1ccccn1)O2	0.0	-2.2	i
6	6	COc1ccc(C2(CO)OC(CO)C(O)C2O)cc1 (stereo not given)	-1.2	-0.4	i
0	4	CN1[C@@H]2c3ccc(-c4cccc(F)c4)c(=O)n3C[C@H]1[C@H](CO)[C@H]2C(=O)N1CCCCC1	-0.5	-2.4	i
-4	-15	O=C(c1ccccc1)N1C[C@H]2[C@@H](c3ccccc31)[C@H](CO)N2Cc1cc(F)ccc1F	1.3	1.3	i

# A draw from above in order of number of heavy atoms, rising.
Ecoli rRNA inh	Ecoli rRNA inh OD600	Compound	Ecoli rRNA inh RFP	MLL AF4-AF9 inh	FGF22 binding
6	6	COc1ccc(C2(CO)OC(CO)C(O)C2O)cc1 (stereo not given)	-1.2	-0.4	i
3	-4	O=C(C[C@@H]1CC[C@H](NC(=O)NC2CCCC2)[C@@H](CO)O1)NCc1ccc(F)cc1	1.6	-1.4	i
-8	-9	CCC(=O)Nc1ccc2c(c1)OC[C@@H](C)N(Cc1cccc(F)c1)C[C@@H](C)[C@H](OC)CN(C)C2=O	2.2	1.5	i
1	-9	CCCC#Cc1cnc2c(c1)C(=O)N([C@@H](C)CO)C[C@@H](C)[C@H](CN(C)C(=O)Nc1cccc(F)c1)O2	0.6	-0.6	i
-1	-7	C[C@@H]1CCCCO[C@H](CN(C)Cc2ccc3c(c2)OCO3)[C@H](C)CN([C@H](C)CO)C(=O)c2cc(NC(=O)C3CCCCC3)ccc2O1	1.0	6.8	i
-1	-1	COc1ccc(CN(C)C[C@@H]2OCCCC[C@@H](C)Oc3ccc(NC(=O)Nc4ccc5c(c4)OCO5)cc3C(=O)N([C@H](C)CO)C[C@@H]2C)cc1	3.5	-2.0	i

# Other structures:
Ecoli rRNA inh	Ecoli rRNA inh OD600	Compound	Ecoli rRNA inh RFP	MLL AF4-AF9 inh	FGF22 binding
-2	-5	CCC(=O)Nc1ccc2c(c1)C(=O)N(C)C[C@@H](OC)[C@@H](C)CN(C(=O)c1ccccc1F)[C@@H](C)CO2	-0.6	0.1	i
-37	-64	CCOc1ccccc1C=C1CCc2ccccc2C1=O	-11	9.4	i
4	4	NC(=S)N=Nc1c(O)[nH]c2c(Cl)cc(Cl)cc12	3.0	-1.5	i
0	12	C[C@H](CO)N1C[C@H](C)[C@@H](CN(C)S(=O)(=O)c2cccs2)Oc2ccc(NS(=O)(=O)c3cn(C)cn3)cc2CC1=O	1.2	-0.2	i
-7	7	Cc1oc(-c2ccc(F)cc2)cc1-c1nn2c(-c3ccco3)nnc2s1	4.4	-1.9	i
8	11	C[C@@H]1CN([C@@H](C)CO)C(=O)Cc2cc(NC(=O)Nc3ccccc3)ccc2O[C@@H]1CN(C)Cc1ccc(Cl)c(Cl)c1	-1.4	-1.9	i
-3	-37	N#C[C@@H]1[C@@H](c2ccc(C#Cc3ccccc3F)cc2)[C@@H](CO)N1C(=O)C1CC1	3.3	-1.8	i
3	3	CO[C@@H]1CN(C)C(=O)c2cc(NS(=O)(=O)c3ccccc3C)ccc2OC[C@@H](C)N(C)C[C@H]1C	-0.1	-3.3	i
14	12	CCNC(=O)C1CCCN(C(=O)c2ccc3snnc3c2)CC1 (stereo not given)	1.4	1.0	i
-1&3	-1&13	C[C@H](CO)N1C[C@H](C)[C@@H](CN(C)S(C)(=O)=O)Oc2c(NC(=O)Nc3ccccc3)cccc2C1=O	-0.1&-1.9	1.5	i
3	13	CCNC(=O)C[C@@H]1CC[C@@H]2[C@@H](COc3ccc(NC(=O)Nc4c(C)noc4C)cc3C(=O)N2C)O1	-3.7	-0.4	i
-1	-3	CC(=O)C1N=NCC1c1ccccc1 (stereo not given)	4.0	0.4	i
1	4	COc1ccc2c3c(n(C)c2c1)[C@H](CO)N(C(C)=O)CC31CN(C(=O)c2cnccn2)C1	-3.9	-3.3	i
1	7	COc1ccc(NC(=O)CN2C(=O)C3CC=CCC3C2=O)cc1Cl (stereo not given)	-3.2	4.6	i
-1	-2	CC[C@@H]1C=C(C(=O)O)[C@H](c2ccc(C#N)cc2)N1S(=O)(=O)c1ccc(C)cc1	-0.2	-1.3	i
1	2	O=C(C[C@@H]1CC[C@@H](NC(=O)Nc2cccc(F)c2)[C@@H](CO)O1)NCC1CC1	0.3	-2.6	i
-37	-42	O=C(c1ccc(Br)c(S(=O)(=O)N2CCOCC2)c1)N1CCN(C/C=C/c2ccccc2)CC1	-3.0	6.6	i
-6	-7	C[C@H](CO)N1C[C@H](C)[C@H](CN(C)S(=O)(=O)c2ccc(C#N)cc2)Oc2ncc(-c3ccccc3)cc2C1=O	0.6	-2.1	i
-2	-6	CC(=O)NC(c1ccc(F)c(F)c1)c1nc(-c2cc3ccccc3o2)cs1 (stereo not given)	1.6	0.0	i
2	10	C[C@@H]1CN([C@@H](C)CO)C(=O)c2cc(-c3cccc(F)c3)cnc2O[C@H]1CN(C)C(=O)c1ccccn1	-1.8	-1.0	i
6	25	C/C=C/c1cnc2c(c1)C(=O)N([C@H](C)CO)C[C@@H](C)[C@H](CN(C)CC1CCOCC1)O2	0.0	-3.0	i
-1	-3	C[C@@H]1CN([C@H](C)CO)C(=O)c2cccc(NS(C)(=O)=O)c2O[C@H]1CN(C)C(=O)Nc1ccc(C(F)(F)F)cc1	0.6	-1.8	i
15	20	CCCCc1ccc(S(=O)(=O)NC(=O)C2(C)CCN2C(=O)CC2CC2)cc1 (stereo not given)	2.8	-3.3	i
6	4	CC(C)C#Cc1ccc([C@H]2[C@H](CO)N3C(=O)CN(C(=O)NC4CCCC4)C[C@@H]23)cc1	-1.0	-0.6	i
4	-10	CC(C)NC(=O)N(C)C[C@H]1Oc2cc(C#Cc3cccc(F)c3)ccc2S(=O)(=O)N([C@@H](C)CO)C[C@H]1C	1.2	1.1	i
18	19	CC(=O)c1ccc(OC(=O)Oc2ccc(C(C)=O)cc2)cc1	1.2	3.4	i
0	12	COc1cccc(S(=O)(=O)N2C[C@H](O)COC[C@@H]3O[C@H](CC(=O)N4CCCCC4)CC[C@H]32)c1	-6.3	1.4	i
-3	-4	COc1ccc(S(=O)(=O)N(C)C[C@@H]2OCCCC[C@@H](C)Oc3ccc(NC(=O)Cc4ccccc4)cc3C(=O)N([C@@H](C)CO)C[C@@H]2C)cc1	-2.0	0.1	i
-2	-4	C[C@@H]1CN([C@H](C)CO)C(=O)c2cc(NS(=O)(=O)c3ccc(Cl)cc3)ccc2O[C@H]1CN(C)Cc1ccc(Cl)c(Cl)c1	-0.9	-1.0	i
1	-7	C[C@H]1CN([C@@H](C)CO)C(=O)c2cccc(NC(=O)c3nc4ccccc4s3)c2O[C@H]1CN(C)C(=O)Nc1ccc(C(F)(F)F)cc1	-1.5	0.5	i
7	11	C[C@@H]1CN([C@@H](C)CO)C(=O)c2cc(C3=CCCC3)cnc2O[C@@H]1CN(C)C(=O)Cc1ccncc1	-2.2	2.4	i
-1	0	Cc1ccccc1S(=O)(=O)N[C@@H]1CC[C@@H](CCNS(=O)(=O)c2cccc(F)c2)O[C@@H]1CO	-1.2	-1.5	i
-4	6	CCCN(C)C[C@H]1Oc2ncc(C#CCC(C)C)cc2C(=O)N([C@@H](C)CO)C[C@@H]1C	-2.1	5.4	i
-1	-3	Cc1cccc(N2CCN(C(C(=O)NCc3ccccc3)c3ccc(C(F)(F)F)cc3)CC2)c1C (stereo not given)	-4.0	2.1	i
-4	-11	C[C@H]1CN([C@@H](C)CO)C(=O)c2cccc(NC(=O)Nc3ccc4c(c3)OCO4)c2O[C@@H]1CN(C)C(=O)Nc1ccc(C(F)(F)F)cc1	-3.3	4.0	i
-5	3	COc1ccc(NC(=O)N(C)C[C@@H]2Oc3c(NC(=O)Nc4ccccc4)cccc3C(=O)N([C@@H](C)CO)C[C@@H]2C)cc1	3.4	2.0	i
4	9	COc1ccc(NC(=O)Nc2cccc3c2O[C@H](CN(C)CC2CC2)[C@@H](C)CN([C@@H](C)CO)C3=O)cc1	0.5	3.2	i
-35	-61	O=C(COc1ccc(F)cc1Br)Nc1ccccc1N1CCOCC1	-2.0	-0.3	i
22	8	Cc1cccc(C)c1-n1nnnc1C(c1ccnc2ccccc12)N1CCCN(C(=O)OC(C)(C)C)CC1 (stereo not given)	3.0	0.1	i
-57	-74	CCC(=O)N1CCCCN2[C@H](C1)[C@@H](c1ccc(/C=C/c3ccccc3)cc1)[C@@H]2CO	-11	7.4	i
-2	-1	O=C(N[C@H]1CC[C@H](CCNC(=O)C2CCCCC2)O[C@H]1CO)c1ccccn1	-0.6	3.8	i
4	9	C[C@H](CO)N1C[C@H](C)[C@H](CN(C)S(=O)(=O)c2ccccc2)Oc2ncc(C#Cc3ccc(F)cc3)cc2C1=O	0.8	-2.9	i
-6	6	C[C@H]1CN([C@@H](C)CO)C(=O)c2cc(NS(=O)(=O)c3ccc(Cl)cc3)ccc2O[C@@H]1CN(C)C(=O)Nc1ccccc1	1.1	-11	i
1	2	CCCN1C[C@@H](C)[C@@H](OC)CN(C)C(=O)c2ccc(NS(=O)(=O)c3ccccc3)cc2OC[C@H]1C	-1.4	-4.4	i
5	1	COCCNC(=O)C[C@@H]1C[C@H]2c3cc(NC(=O)Nc4ccc(C(F)(F)F)cc4)ccc3O[C@H]2[C@@H](CO)O1	1.5	4.3	i
3	5	COCCNC(=O)C[C@H]1C[C@@H]2c3cc(NC(=O)NC4CCCCC4)ccc3O[C@@H]2[C@@H](CO)O1	-2.1	1.1	i
0	-6	COc1ccc(-c2ccccc2[C@H]2[C@@H](CO)N(C(=O)C3CC3)[C@H]2C#N)cc1	-0.9	-1.4	i
-1	6	COc1ccc(CN(C)C[C@H]2OCCCC[C@@H](C)Oc3ccc(NS(=O)(=O)c4ccc(F)cc4)cc3C(=O)N([C@H](C)CO)C[C@@H]2C)cc1	-2.3	1.5	i
-1	0	C[C@@H]1CN([C@H](C)CO)C(=O)Cc2cc(NC(=O)Cn3cnnn3)ccc2O[C@H]1CN(C)Cc1ccc(C(F)(F)F)cc1	1.9	-1.6	+
-2	-15	C[C@@H]1CN([C@H](C)CO)S(=O)(=O)c2ccc(C#Cc3ccncc3)cc2O[C@H]1CN(C)C(=O)C1CC1	1.4	-0.6	i

# The list is partial (hit frequency here may not be typical).
